Source: PubChem (Johns Hopkins Ion Channel Center)
KCNQ2 enhance – potentiators of rat KCNQ2 potassium channel; CHO-K1 KCNQ2, FluxOR thallium flux fluorescence; hits give high values; Potassium voltage-gated channel subfamily KQT member 2 (Rattus norvegicus), O88943; 0.54% of 310,000 active; B-score at 10 µM;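 active means fluorescence ratio B-score at least 3 SD of library B-scores, with initial fluorescence B-score within 3 SD, cut at about 5.3 in these data; same plate scores as AID 2156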;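 further: B-score of peak minus minimum over baseline fluorescence ratio after K+ and Tl+ stimulus; positive B-score means potentiation of KCNQ2 with more thallium influx and brighter signal; only the inactives scoring about 0 or higher are listed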
Target sequence (O88943 whole entry, looked up): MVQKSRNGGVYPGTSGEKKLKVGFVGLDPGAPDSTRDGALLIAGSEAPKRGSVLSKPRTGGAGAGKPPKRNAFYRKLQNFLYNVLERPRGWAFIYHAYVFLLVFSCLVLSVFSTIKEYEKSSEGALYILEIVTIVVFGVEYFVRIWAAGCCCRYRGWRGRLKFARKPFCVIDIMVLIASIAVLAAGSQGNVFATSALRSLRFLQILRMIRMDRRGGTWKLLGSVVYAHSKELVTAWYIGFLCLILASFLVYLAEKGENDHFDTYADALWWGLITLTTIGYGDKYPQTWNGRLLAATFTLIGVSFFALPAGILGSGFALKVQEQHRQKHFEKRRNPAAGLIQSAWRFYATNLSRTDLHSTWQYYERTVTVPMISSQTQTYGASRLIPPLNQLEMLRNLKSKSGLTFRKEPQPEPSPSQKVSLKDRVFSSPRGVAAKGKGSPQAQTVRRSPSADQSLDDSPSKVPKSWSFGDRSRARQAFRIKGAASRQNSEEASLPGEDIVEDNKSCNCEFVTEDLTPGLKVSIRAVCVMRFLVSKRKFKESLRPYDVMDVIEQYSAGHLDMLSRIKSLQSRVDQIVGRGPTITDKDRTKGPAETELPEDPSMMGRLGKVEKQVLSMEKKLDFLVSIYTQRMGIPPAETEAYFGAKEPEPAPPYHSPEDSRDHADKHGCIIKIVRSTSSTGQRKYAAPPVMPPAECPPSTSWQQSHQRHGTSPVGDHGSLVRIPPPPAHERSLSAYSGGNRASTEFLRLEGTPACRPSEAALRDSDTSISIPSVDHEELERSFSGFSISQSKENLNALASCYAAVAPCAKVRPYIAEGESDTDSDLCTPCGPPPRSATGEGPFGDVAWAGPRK
KCNQ2 enhance baseline – further read-out of KCNQ2 enhance, marked with its call; B-score; compound at 10 µM; measured here: initial fluorescence intensity artifact check;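 brightness before thallium and not channel activity; 0 = typical well and far values either way flag optical interference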
Active calls of the source: *; / = not tested or not shown; & = joins results of further samples. Some of the compounds tested, so the mix of outcomes need not match the whole.

SMILES	KCNQ2 enhance	KCNQ2 enhance baseline
CCOc1ccc(CCNC(=O)CCC(=O)N2CCOc3ccc(C)cc32)cc1OCC	0.46	-0.1
O=C(Nc1ccc(S(=O)(=O)Nc2cnc3ccccc3n2)cc1)c1cccc(OC(F)F)c1	0.37	2
O=C(COCC(=O)NCc1ccccc1)NCc1ccccc1	0.19	1
COc1cc(S(=O)(=O)NC(C)C)ccc1Cl	0.02	0.38
CN1CCN(S(=O)(=O)c2cccc(C(=O)Nc3cccc(S(N)(=O)=O)c3)c2)CC1	0.08	1.5
CCOc1ncccc1C(=O)Nc1ccc(S(=O)(=O)Nc2nccs2)cc1	0.62	-0.88
Cc1ccc(S(=O)(=O)NCCCNC(=O)N2CCOCC2)cc1	1.1	-0.01
Cn1cnc(Sc2ncnc3nc[nH]c23)c1[N+](=O)[O-]	2.1	-0.02
CCc1nnc(NC(=O)CSc2ncnc3c2oc2ccccc23)s1	0.37	-0.69
CN(C)/C=C(\C=O)c1ccc(Cl)cc1Cl	0.34	-0.79
NC(=S)N/N=C1\CCOc2ccc(F)cc21	1.8	0.01
O=c1ccc2ccc(Oc3ccc([N+](=O)[O-])cc3Cl)cc2o1	0.01	-1.4
COc1ccc(CN(C)CC(=O)Nc2ccc(SC(F)F)cc2)cc1OC	0.17	-0.15
CCOc1ccccc1-n1c(C)nc2cc(C(=O)O)ccc21	0.76	0
COc1cc(NC(=O)c2ccc(Cl)cc2Cl)ccc1NC(=O)c1cccs1	0.82	-0.83
COc1ccccc1NC(=O)c1ccc2nc(C)c(C)nc2c1	0.28	0
O=C(CCCN1C(=O)c2cccnc2C1=O)Nc1ccc(F)cc1Cl	0.09	2.5
O=C(Cc1ccccc1F)Nc1ccccc1-c1ccccc1	1.4	0.74
CCOc1ccccc1N(CC(=O)Nc1cccnc1)S(C)(=O)=O	0.01	0.31
O=S(=O)(c1ccccc1)c1nc(-c2ccco2)oc1N1CCCCC1	3.2	-0.7
COc1ccc(S(=O)(=O)N2CCC(C(=O)NC3CCCC3)CC2)cc1C	0.02	0.36
O=C(CSc1nnc(NC(=O)c2cccc(F)c2)s1)NCc1ccco1	0.04	1.8
COc1ccc(/C=N/NC(=O)c2ccc(N3CCCC3=O)cc2)cc1	0.38	1.3
Cc1nn(Cc2noc(C(=O)NC3CCC(C)CC3)n2)c(C)c1Br (stereo not given)	1.7	-0.27
CC1(C)CC(=O)C2=C(C1)NC(Nc1nc3ccccc3o1)=NC21CCCC1	0.07	-0.21

An excerpt from above in order of count of non-hydrogen atoms, largest number first:
SMILES	KCNQ2 enhance	KCNQ2 enhance baseline
CN1CCN(S(=O)(=O)c2cccc(C(=O)Nc3cccc(S(N)(=O)=O)c3)c2)CC1	0.08	1.5
COc1ccc(/C=N/NC(=O)c2ccc(N3CCCC3=O)cc2)cc1	0.38	1.3
CCOc1ccccc1N(CC(=O)Nc1cccnc1)S(C)(=O)=O	0.01	0.31
Cc1ccc(S(=O)(=O)NCCCNC(=O)N2CCOCC2)cc1	1.1	-0.01

Reprinted at random: 6 compounds from above, in no set order.
SMILES	KCNQ2 enhance	KCNQ2 enhance baseline
CC1(C)CC(=O)C2=C(C1)NC(Nc1nc3ccccc3o1)=NC21CCCC1	0.07	-0.21
COc1cc(NC(=O)c2ccc(Cl)cc2Cl)ccc1NC(=O)c1cccs1	0.82	-0.83
NC(=S)N/N=C1\CCOc2ccc(F)cc21	1.8	0.01
COc1ccc(S(=O)(=O)N2CCC(C(=O)NC3CCCC3)CC2)cc1C	0.02	0.36
O=C(CCCN1C(=O)c2cccnc2C1=O)Nc1ccc(F)cc1Cl	0.09	2.5
O=C(Cc1ccccc1F)Nc1ccccc1-c1ccccc1	1.4	0.74

Continued.
SMILES	KCNQ2 enhance	KCNQ2 enhance baseline
CCOC(=O)c1cnc(Nc2ccc(OCC)cc2)nc1C	1.3	0.02
COc1ccc(O)c(C=NCC(C)N=Cc2cc(OC)ccc2O)c1 (stereo not given)	1.1	0.28
Nn1cnnc1N/N=C/c1cc(Br)cc(Br)c1O	0.18	0.11
Cc1ccc2[nH]c(=O)c(CN(CC3CCCO3)C(=O)c3cccs3)cc2c1 (stereo not given)	0.78	-1.7
O=C(NNS(=O)(=O)c1ccc([N+](=O)[O-])cc1)C1CCCCC1	0.83	0
CC(c1ccccc1)N1C(=O)c2ccc(C(=O)Nc3ccc(Br)cc3C(=O)O)cc2C1=O (stereo not given)	2.8	0.22
NC(=Nc1ccc(Br)cc1)c1ccccc1	0.77	-0.02
CC(=O)OC1CC(C)N(C(=O)c2ccccc2)c2ccc(C)cc21 (stereo not given)	1.5	-0.19
CCCc1cc(C(=O)NNC(=S)NC(C)c2ccccc2)cs1 (stereo not given)	1.2	-1.4
O=C(O)c1cccc2c(/C=N/Nc3ccccn3)c[nH]c12	0.51	0.41
O=C(NCc1cccnc1)NC1(C(F)(F)F)Oc2ccccc2O1	0.43	1.2
CSc1nc(N)c2c3c(sc2n1)CN(C)CC3	0.67	-0.56
Cc1ccc(Oc2nc3c(C)cccn3c(=O)c2/C=C(\C#N)C(N)=O)cc1	0.12	-0.52
CCOC(=O)C1=C(C)NC(=O)NC1C (stereo not given)	0.8	1.4
O=c1c2ccccc2ncn1-c1ccc(Cl)cc1	1.9&1.1	-0.39&0.75
CC(C)c1ccc(-c2c(C#N)c(N)nc3c2CCCCC3)cc1	0.17	0.31
CCCCc1nnc(NC(=O)CC(=O)Nc2ccccc2C(=O)O)s1	0.95	-0.72
Cc1cccc(NC(=O)NCc2ccc3c(c2)OCO3)c1C	1.4	-2.2
Cc1ccc(-c2nc(N)n(C(=O)c3ccco3)n2)cc1	0.08	-0.77
CC(O)C(NS(=O)(=O)c1ccc(Cl)cc1)C(=O)OCC(=O)N1CCN(c2ccccc2)CC1 (stereo not given)	1.2	-2.5
CCN(CC)S(=O)(=O)c1cc(NC(=O)Cc2n[nH]c(=O)c3ccccc23)ccc1C	0.38	0.04
COc1ccc(OCC(=O)Nc2nnc(-c3ccco3)s2)cc1	1.3	0.85
Cc1ccc(CSc2nc3ncccc3[nH]2)cc1	0.39	0.14
C=C[C@]1(C)C[C@@H](OC(=O)CSCCN(CC)CC)[C@]2(C)C(C)CC[C@]3(CCC(=O)[C@H]32)[C@@H](C)[C@@H]1O (stereo not given in full)	0.17	/
CC(C)CN(CC(C)C)C(=S)NC1CCCCC1	0.41	-0.59
Next compounds follow.
SMILES	KCNQ2 enhance	KCNQ2 enhance baseline
NC(=O)NC(CC(=O)NCc1ccc2c(c1)OCO2)c1ccccc1Cl (stereo not given)	0.01	-1.5
O=C(N/N=C/c1cccnc1)C12CC3CC(CC(C3)C1)C2	1.6	-0.78
O=C(NC(=S)Nc1cccc(Cl)c1N1CCCCC1)c1ccco1	8.3*	0.72*
CCOC(=O)C1CCN(S(=O)(=O)c2ccc(CNC(=O)c3ccccc3)s2)CC1	1.5	0.37
O=C(Nc1ccccc1)NC1CC2CCC(C1)N2Cc1nnnn1Cc1ccc2c(c1)OCO2 (stereo not given)	0.67	-0.8
O=C(NC(CO)(CO)CO)c1coc(=O)c(Br)c1	0.38	0.08
COc1cc(CNn2c(C)n[nH]c2=S)cc(Cl)c1OCc1ccccc1	1.9	-1.7
CNC(=S)N1CCC(NC(=O)C(Cc2ccccc2)NC(C)=O)CC1 (stereo not given)	1.9	2.9
O=C(CC(=O)NCc1ccccc1)NCc1ccccc1	1.1	0.08
Cc1ccc2[nH]c3nc(SCC#N)nnc3c2c1	0.12	0.26
CC(=O)c1ccc2noc(-c3cccc(C)c3)c2c1	0.56	0.18
O=C(O)C1CCC(=O)N(C2CC2)C1c1ccccc1 (stereo not given)	1.6	-1.2
COC(=O)c1ccccc1NC(=O)CSc1nc(N)cc(N)n1	0.54	2
COc1ccc(-n2c(COc3cccc4cccnc34)nnc2SCC(=O)O)cc1	0.85	-2.2
O=C(O)c1ccc(CSc2n[nH]c(-c3ccco3)n2)cc1	0.15	0.8
Clc1ccc(CSc2nnc(-c3ccncc3)o2)c(Cl)c1	0.76	-1.1
COc1ccc(-c2cc(C(F)(F)F)n3nc(C(=O)N4CCCC4)cc3n2)cc1	0.89	0.18
CCc1nc2oc3ccccc3c(=O)c2c(=O)n1-c1ccc(C)cc1	2.2	-2
COc1cc2c(cc1OC)-c1cc(N3CCCCCC3)nc(=O)n1CC2	0.27	-0.33
CCC1(O)CC(c2ccccc2)=NN1C(=O)c1ccccc1F (stereo not given)	5	-0.97
CCC1CCCCN1C(=O)c1nn2cccnc2c1Cl (stereo not given)	1.1	0.06
Cc1cc(=O)[nH]c2c1c(C)nn2C1CCOC(C)(C)C1 (stereo not given)	0.5	1.9
CC(=O)c1ccc(NC(=O)COc2ccccc2C(=O)Nc2ccc(C)cn2)cc1	1.1	0.95
COc1cccc(Nc2ncnc3ccccc23)c1	2.8	-2.2
Cc1cnc2ncc3sccc3c2c1	1.4	0.04
Going on with the list.
SMILES	KCNQ2 enhance	KCNQ2 enhance baseline
COc1ccc(C2C(C#N)=C(N)Oc3n[nH]c(C)c32)cc1Cn1nc(C)c([N+](=O)[O-])c1C (stereo not given)	1.4	-0.42
Nc1cccc(-n2cccc2)c1	0.93	-2
CCOc1ccc(-c2noc(-c3ccncc3)n2)cc1OCC	2.2	-0.66
O=C(Oc1ccc(/C=N/NC(=O)c2ccccn2)cc1)c1cccc(F)c1	0.52	-0.23
O=C(Nc1cccc(O)c1)c1ccc2c(c1)C(=O)N(Cc1ccco1)C2=O	0.71	1.9
Cc1c(Cl)c(C(=O)NC2CCCC2)nn1C	0.85	-1.3
Cn1nc(C(=O)OCC(=O)Nc2ccc(S(N)(=O)=O)cc2)c2ccccc2c1=O	1.4	0.78
Cc1cc(C(=O)N/N=C/c2cc([N+](=O)[O-])ccc2O)c2ccccc2n1	1.2	2.6
O=C(NC1CCCC1)c1ccc(S(=O)(=O)N2CCCC2)cc1	0.1	5.1
O=C(NCc1ccccn1)c1ccc(NS(=O)(=O)c2ccccc2)cc1	0.07	0.06
CC(C)OC(=O)CSc1nnc(-c2ccccn2)n1N	2	0.01
CCN(c1ccc(OC)cc1)S(=O)(=O)c1csc(C(N)=O)c1	0.07	0.84
Cc1sc2nc(SCC(=O)N3CCCCC3)[nH]c(=O)c2c1C	0.17	-0.7
C/C=C\C(=O)Nc1cccc(C2=NOC3(C2)C[C@H](C(N)=O)N(C(=O)[C@H]2CCC(=O)N2)C3)c1 (stereo not given in full)	0.93	0.09
Cc1cccc(-n2ncc3c(N4CCCC4)ncnc32)c1	0.84	1.3
COc1cc(C2C(C#N)=C(N)OC3=C2C(=O)CC(C)(C)C3)cc2c1OCO2 (stereo not given)	1.2	1.3
CCCN(CCC)S(=O)(=O)c1ccc(C(=O)Nc2cccnc2)cc1	0.95	-2.4
Cc1cc(=O)oc2cc(N3C(=O)CC(Cc4ccccc4)C3=O)ccc12 (stereo not given)	0.1	-0.47
O=C(Nc1cc(Cl)ccc1C(=O)O)c1ccc(CN2C(=O)c3ccccc3C2=O)cc1	1.7	0.11
NS(=O)(=O)c1cccc(NC(=O)c2cccc(-c3ccc(O)cc3)c2)c1	0.17	-0.35
O=C(O)C(=O)/C(=C\c1ccc(Cl)cc1)c1ccc2ccccc2n1	0.39	-0.3
O=C(NC1CCCC1)C(c1ccc(Cl)cc1)N1CCOCC1 (stereo not given)	0.81	4.2
Cc1c(CCOC(=O)c2cc([N+](=O)[O-])cc([N+](=O)[O-])c2)sc[n+]1CCCCS(=O)(=O)[O-]	0.23	-0.22
Cc1nn(CCC(N)=S)c2nc(-c3cccs3)cc(C(F)(F)F)c12	0.22	0.53
CCOc1cc(NC(=S)NCc2ccccc2)c(OCC)cc1NC(=O)C(C)C	0.77	0.42

Reprinted from the part before: 2 compounds, then new ones.
SMILES	KCNQ2 enhance	KCNQ2 enhance baseline
Cc1nn(CCC(N)=S)c2nc(-c3cccs3)cc(C(F)(F)F)c12	0.22	0.53
CCOc1cc(NC(=S)NCc2ccccc2)c(OCC)cc1NC(=O)C(C)C	0.77	0.42
CCOC(=O)N1CCC(NC(=O)c2ccc3c(c2)ncn3C2CCCC2)CC1	2.8	2
O=C1CC(N2CCC(c3nc4ccccc4o3)CC2)C(=O)N1 (stereo not given)	0.13	-0.82
O=C(CNCc1cccs1)Nc1ccc(OC(F)(F)F)cc1	1.2	-0.16
Cc1ccc(C(=O)C2=C(O)C(=O)N(Cc3ccco3)C2c2cccc(Cl)c2)o1 (stereo not given)	0.08	0.35
CCS(=O)(=O)NCc1cn2ccsc2n1	1.3	-1.6
C=C(C)Cn1c(SCC(=O)O)nnc1-c1ccccc1	0.9	-1.2
CCOC(=O)c1sc(-c2ccccc2)nc1C	0.44	-2.7
O=C(Nc1ccc(SC(F)F)cc1)c1ccccc1F	0.96	-0.02
CS(=O)(=O)N(CC(=O)N1CCOCC1)c1cccc(F)c1	1.2	-0.65
Cc1cc(C)n2nc(N)c(N=Nc3cccc(Cl)c3)c2n1	0.74	3.2
Cc1ccc(OCCOC(=O)Nc2ccccc2)cc1	1.1	-0.17
Cc1cc(C)c2[nH]c(=O)c(CN(CC3CCCO3)C(=S)Nc3ccccc3)cc2c1 (stereo not given)	0.77	-1.3
OCC[C@@H]1C[C@@H](O)[C@H](O)[C@]2(CCCc3ccccc3O2)O1	0.71	0.91
C/C(=N/NC(=O)c1cccs1)c1ccc(N2CCOCC2)cc1	0.02	-2
COc1c2ccc(C(=O)NCc3cc(C(F)(F)F)cc(C(F)(F)F)c3)cc2nn1C	0.58	-1.7
COC(=O)c1[nH]c2ccc(C)cc2c1NC(=O)c1ccccc1[N+](=O)[O-]	0.11	-0.17
CC(C)CCNC(=O)Cc1c(C(=O)O)[nH]c2ccc(Cl)cc12	0.64	-0.06
COc1ccc(C(=O)NNC(=O)c2ccc(C)cc2)cc1S(=O)(=O)N1CCCC1	0.58	0
CCOc1cc(CNCCSc2nnnn2C)cc(Br)c1OCc1ccccc1F	0.49	-0.51
Cc1occc1C(=O)Nc1cnn(CCCC(=O)O)c1	1.1	0.31
